Screening results from PubChem.
RecA intein inh: Mtb RecA intein splicing inhibitors, primary screen, biochemical, fluorescence, HTS; cell-free RecA intein splicing; 0.75% of 290,000 active; inhibition, %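 (about 9 µM by stock and volumes)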; Protein RecA (Mycobacterium tuberculosis (strain ATCC 25618 / H37Rv)), P9WHJ3; AID 2221, 2009; in the data active means inhibition above about 30%; inconclusive means no clear call, values can overlap the other calls;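 further: 0% = vehicle wells and 100% = reference inhibitor control wells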
Target sequence (P9WHJ3 whole entry, looked up): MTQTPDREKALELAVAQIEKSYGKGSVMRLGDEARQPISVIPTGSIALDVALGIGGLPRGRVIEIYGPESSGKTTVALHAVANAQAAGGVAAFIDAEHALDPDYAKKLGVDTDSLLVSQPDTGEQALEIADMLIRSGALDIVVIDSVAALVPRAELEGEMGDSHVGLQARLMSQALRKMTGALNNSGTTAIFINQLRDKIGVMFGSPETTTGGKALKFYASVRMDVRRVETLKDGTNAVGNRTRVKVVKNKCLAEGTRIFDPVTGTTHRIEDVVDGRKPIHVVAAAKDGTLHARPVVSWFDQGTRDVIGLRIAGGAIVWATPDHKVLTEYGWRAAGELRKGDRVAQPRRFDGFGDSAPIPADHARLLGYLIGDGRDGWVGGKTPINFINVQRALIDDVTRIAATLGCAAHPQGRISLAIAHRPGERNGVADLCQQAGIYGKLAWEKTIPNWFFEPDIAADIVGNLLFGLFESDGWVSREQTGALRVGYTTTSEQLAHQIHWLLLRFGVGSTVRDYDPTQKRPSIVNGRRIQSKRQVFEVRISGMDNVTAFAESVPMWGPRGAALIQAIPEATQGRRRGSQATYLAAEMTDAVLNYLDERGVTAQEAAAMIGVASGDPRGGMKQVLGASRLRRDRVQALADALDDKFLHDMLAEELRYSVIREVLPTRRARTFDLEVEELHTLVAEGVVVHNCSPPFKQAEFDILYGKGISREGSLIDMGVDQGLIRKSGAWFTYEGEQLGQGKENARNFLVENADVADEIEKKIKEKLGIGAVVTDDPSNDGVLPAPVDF
YopH PTP inh: YopH tyrosine phosphatase inhibitors, primary screen, biochemical, fluorescence Ex485/Em525. YopH tyrosine phosphatase [Yersinia enterocolitica]. inhibition, %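 (about 10 µM by stock and volumes)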. 0.16% of 140,000 active;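 active means inhibition of 50% or more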;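 further: controls were vehicle for no effect and minimum signal wells for full effect; inactives centre near -20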
Mtb H37Rv: M. tuberculosis H37Rv growth inhibitors, H37Rv strain (AID 1626); M. tuberculosis H37Rv growth inhibition; higher % means a stronger effect; inhibition, % at 10 µM, or IC50 in µM where a hit was titrated; 0.95% of 220,000 active;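 active means confirmed in a dose series; inconclusive means inhibition above 80% but not taken into the dose series; inactive means below 80% or under 30% at every dose of the series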;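 further: bacteria incubated seven days before Alamar blue readout; 0% = bacteria only wells and 100% = bacteria with antibiotic wells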
Mtb betalactam: beta-lactam sensitization of Mtb H37Rv, H37Rv; M. tuberculosis H37Rv growth with meropenem, percent inhibition; hits of this screen are not shown here; AID 434955, 2010; 0.27% of 330,000 active; inhibition, % at 25 µM;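 active means about 74% or more and at least 40 points above the plate without the antibiotic, then above 30% in a dose series; inconclusive means first-round hits that could not be retested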;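 further: growth measured after seven days incubation then overnight dye step; 0% = bacteria only wells and 100% = bacteria with antibiotic; twin plates without the antibiotic show which effects depend on it; some results filed as inactive read as strong as hits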
Arbovirus anti: antivirals against arbovirus infection, primary screen, cell-based, full library, 10K replicate subset. arbovirus infection cell-based antiviral screen. inhibition, % at 10 µM. 0.37% of 200,000 active. AID 1251, 2008;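 active means inhibition from about 30%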;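 further: bluetongue infection of BSR cells; cell survival read as ATP light after 72 h; 0% = infected wells without compound and 100% = uninfected wells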
An asterisk follows results filed as active; u = inconclusive; x = not tested or not shown.

Compound | RecA intein inh | YopH PTP inh | Mtb H37Rv | Mtb betalactam | Arbovirus anti
O=C(N/N=C/c1ccc([N+](=O)[O-])o1)c1cc(-c2cccc(Br)c2)nc2ccccc12 | 27 | -15 | u | 100 | -31
O=C(/C=C/c1cccs1)c1ccc(N2CCOCC2)cc1 | 2.2 | x | -2% | -3 | 2
Cc1ccc(C)c(-n2c(CNC(=O)c3ccco3)nnc2SCC(=O)N2CCc3ccccc32)c1 | 0.0 | -23 | x | 5 | -4
Cn1cc(CN2CCC(Oc3ccc(C(=O)N4CCCCC4)cc3)CC2)cn1 | -0.8 | x | x | -7 | x
O=C(CN1CCC(C(=O)c2cccc(F)c2)CC1)NCc1cccs1 | -0.1 | 2 | 2% | -2 | 7
CCn1c(=O)c2c(nc3n2CC(C)CN3CCc2ccccc2)n(C)c1=O (stereo not drawn) | 2.1 | -9 | -2% | -8 | 1
CCC1=Nc2cc(C(=O)NCCN3CCCC3)ccc2Sc2ccc(C)cc21 | 3.1 | x | x | 1 | x
COc1cccc(NC(=O)CSc2nncn2-c2ccccn2)c1 | -1.9 | 15 | -10% | 8 | -3
O=C(O)c1ccc2c(c1)-c1nc3ccccc3n1C2=O | 2.9 | -17 | -7% | 8 | 6
CCOC(=O)c1c(NC(=O)CCC(=O)O)sc2c1CC(C)(C)OC2 | -2.6 | x | -4% | -4 | 2
CCOC(=O)c1cc2c(=O)[nH]ccc2nc1C(F)(F)F | 0.1 | x | -12% | -9 | x
COc1ccc(C(CNC(=O)C(=O)Nc2ccc3c(c2)OCO3)N2CCN(C)CC2)cc1 (stereo not drawn) | -0.1 | x | x | -7 | x
CCC(C)NC(=S)Nc1ccc2nc(N3CCN(CC)CC3)cc(C)c2c1 (stereo not drawn) | -1.0 | x | 5% | -2 | -11
O=C(Nc1ccccn1)C12CC3CC(C1)CC(C(=O)Nc1ccccn1)(C3)C2 | -0.5 | -15 | -3% | -6 | -4
O=C1CCNc2c(Cl)cccc21 | -11 | x | -2% | 88 | x
O=C(O)CCCn1cc(NC(=O)COc2ccc([N+](=O)[O-])cc2)cn1 | 0.0 | x | -5% | -2 | 0
COc1ccc(/C=C/C(=O)OCC(=O)NCCC2=CCCCC2)cc1 | 1.5 | x | 15% | 39 | 7
O=C1NC[C@@H](Cc2ccc(O)cc2)N(CCc2cccc3ccccc23)C1=O | -0.2 | x | -9% | -11 | x
O=c1[nH]c(/C=C/c2ccc(Cl)cc2Cl)c([N+](=O)[O-])c(=O)[nH]1 | -4.5 | x | x | -5 | x
COc1ccc(C2/C=C\CN(C(=O)C3CC3)CC(=O)N2Cc2ccc(F)cc2)cc1 (stereo not drawn) | 0.9 | x | -2% | -9 | x
CC(=O)Nc1ccc(S(=O)(=O)Oc2ccc3c(c2)C(C)=CC(C)(C)N3)cc1 | -1.9 | -45 | 12% | 0 | 21
CCn1ccnc1CN(C)C(=O)c1cc(COc2ccccc2SC)on1 | 0.9 | x | x | -3 | x
CC(=O)Nc1ccc(NC(=O)C2CCCN2S(=O)(=O)c2cccc3nsnc23)cc1 (stereo not drawn) | -3.8 | x | -5% | 0 | 4
N/C(=N\O)c1ccc(NC(=O)c2ccc(Br)o2)cc1 | 1.9 | -48 | 2% | -1 | -6
COc1cc2c(cc1NC(=O)/C=C/c1cc(OC)c(OC)c(OC)c1)oc1ccccc12 | -0.4 | -23 | 5% | 1 | 16
Cc1cccnc1NC(=O)CCCN1C(=O)c2ccccc2C1=O | -1.6 | -28 | -8% | 1 | 3
CN1CCN(C(=O)c2ccccc2NC(=O)c2ccccc2)CC1 | -2.0 | x | x | -4 | x
CCc1nnc2c(N(C)S(=O)(=O)c3ccc(C)cc3)nc3ccccc3n12 | 0.2 | x | x | -3 | x
O=C(CN1CCC(C(O)(c2ccccc2)c2ccccc2)CC1)Nc1cc(Cl)ccc1Cl | 8.2 | -37 | 33% | 14 | -17
N/C(=N\[N+](=O)[O-])N1CCN(C(=O)c2ccccn2)CC1 | -1.8 | x | x | -2 | x
O=C(NC1CCCC1)c1cc(-c2cccc(Cl)c2)on1 | -0.4 | x | x | 12 | x
CN(C)C(CNC(=O)c1c(F)cccc1Cl)c1ccco1 (stereo not drawn) | -1.8 | x | x | 1 | x
O=C(Cc1ccc(S(=O)(=O)N2CCCCC2)s1)Nc1ccc(F)c(F)c1 | 0.4 | -25 | -1% | -9 | -33
O=C(N/N=C/c1ccc([N+](=O)[O-])cc1)c1ccc(COc2ccccc2-c2ccccc2)cc1 | -0.3 | x | 8% | 67 | -18
CCOP(=O)(OCC)C(Nc1ccccc1)c1ccccc1C(F)(F)F (stereo not drawn) | -0.6 | x | 7% | -2 | x
Cc1cc(C)cc(NC(=O)c2cccc(C(=O)Nc3cc(C)cc(C)c3)n2)c1 | -0.5 | x | x | 3 | x
COCCNC(=O)C1CCCN(S(=O)(=O)c2c(C)noc2/C=C/c2cccs2)C1 (stereo not drawn) | -3.3 | x | 3% | -4 | x
Cc1sc2nc(CN3CCCC3)nc(N3CCN(S(=O)(=O)c4cccs4)CC3)c2c1C | 6.1 | 9 | -7% | -4 | -19
COC(=O)C1CCN(C(=O)c2cc(OC)c(OC)c(OC)c2)CC1 | -0.4 | -25 | -9% | -4 | 8
Cn1c(C(=O)NCCc2ccccc2)cc(=O)n(C)c1=O | 0.5 | x | 3% | -8 | 3
COc1cccc(NC(=S)N(CCC(C)C)C(C)c2ccncc2)c1 (stereo not drawn) | 1.6 | x | x | 4 | x
CCN(CC)C(=O)c1sc2nc(Cc3ccccc3)[nH]c(=O)c2c1C | -0.6 | x | 8% | 2 | 0
CCCCCN(C(=O)CCC(=O)OCC(=O)NCc1ccc(OC)cc1)c1c(N)n(CCCC)c(=O)[nH]c1=O | 0.1 | x | x | -7 | x
O=C(CSCc1ccccc1F)NCc1ccccc1 | 4.1 | x | 0% | -10 | 5
O=c1cc[nH]c2c1ccc1c(=O)cc[nH]c12 | -1.8 | x | x | -1 | x
COCc1ccc(CN2CCc3c([nH]c4ccccc34)C2C(C)(C)C)o1 (stereo not drawn) | x | x | -9% | 2 | -5
Cc1cc(C)cc(NC(=O)c2ccccc2CC[N+](=O)[O-])c1 | -1.0 | -46 | 58% | -7 | -8
O=c1[nH]c(CSc2ncnc3sccc23)nc2cc(C(F)(F)F)ccc12 | 3.5 | x | 7% | -2 | x
O=C(O)Cc1ccc(NC(=O)c2ccc(Cl)c(Cl)c2)cc1 | 1.5 | x | -14% | -10 | -1
Cc1ccc(C)c(CSc2nc3ccncc3n2CC(=O)Nc2ccc(C)c(C)c2)c1 | x | -22 | 7% | x | 3
CC1CCCCC1NC(=O)C1CCN(c2c3c(nc4ncnn24)CCC3)CC1 (stereo not drawn) | -1.8 | x | x | -12 | x
CC(/C=N/N1CCN(c2ccccn2)CC1)=C\c1ccccc1 | 1.9 | -32 | -6% | 0 | 4
COc1ccc(C)cc1-n1c(SCC(=O)Nc2cc(C)on2)nc2sc(C)c(C)c2c1=O | -2.0 | -42 | 10% | 44 | -6
COc1ccc(N2CCN(c3oc(COc4ccccc4)nc3C#N)CC2)cc1 | x | -27 | -5% | 3 | -7
Nc1nsc2ccccc12 | -5.3 | -31 | 4% | 1 | -5
Cc1ccc(C(=O)N[C@H](C(=O)OCC(=O)c2ccc[nH]2)C(C)C)cc1 | -1.5 | -31 | 0% | 2 | 3
COc1ccccc1Nc1nc(NCC2CCCO2)c2ccccc2n1 (stereo not drawn) | 4.5 | x | -3% | 38 | 11
COC(=O)CSc1cc([N+](=O)[O-])cc2c1c(C1OCCO1)nn2-c1ccccc1 | -4.1 | -24 | -8% | 6 | -2
N#Cc1ccc(OCC(=O)N/N=C/C2CC=CCC2)cc1 (stereo not drawn) | -4.6 | x | 4% | -1 | -5
O=C(NCC(=O)N1CCN(C(=O)c2ccco2)CC1)c1ccccc1 | -1.6 | x | x | -1 | x

Another view of 2 compounds above.
CCCCCN(C(=O)CCC(=O)OCC(=O)NCc1ccc(OC)cc1)c1c(N)n(CCCC)c(=O)[nH]c1=O
  RecA intein inh: 0.1	YopH PTP inh: x	Mtb H37Rv: x	Mtb betalactam: -7	Arbovirus anti: x
O=C(CSCc1ccccc1F)NCc1ccccc1
  RecA intein inh: 4.1	YopH PTP inh: x	Mtb H37Rv: 0%	Mtb betalactam: -10	Arbovirus anti: 5

Next results follow:
Compound | RecA intein inh | YopH PTP inh | Mtb H37Rv | Mtb betalactam | Arbovirus anti
CC(NC(=O)NC(=O)c1cccc(Cl)c1)c1ccccc1 (stereo not drawn) | 1.0 | x | x | -1 | x
COc1ccc(C(=O)NNC(=O)C(=O)/C=C(\O)c2ccc(C)cc2)cc1 | 8.2 | x | x | 13 | x
O=C(Nc1ccccc1C(=O)N1CCCCC1)c1ccc(Cl)cc1Cl | 0.2 | x | x | -1 | x
CCCCCN(C(=O)CN(C)Cc1ccc(OC)cc1OC)c1c(N)n(CCCC)c(=O)[nH]c1=O | -2.3 | -14 | -7% | -7 | -4
O=C(O)c1ccccc1-c1ccccc1C(=O)Nc1cccc(O)c1 | -4.5 | x | -3% | 44 | 0
CCO[C@H]1OC(C(=O)NCc2nc3ccccc3[nH]2)=C[C@@H](c2ccc(Br)cc2)[C@@H]1CCCO | 4.7 | x | 4% | 13 | x
COc1ccc2c(=O)c(-c3nc(C)cs3)coc2c1 | 2.7 | -1 | 10% | 5 | 8
Cc1nn(C)c(Cl)c1S(=O)(=O)N1CCC(CO)(CCc2ccccc2)CC1 | -4.2 | x | -6% | 5 | 8
O=C(N/N=C\c1ccc(F)cc1)c1csnn1 | 2.3 | -9 | -9% | 43 | 4
COc1cccc(/C=N/NC(=O)c2cnccn2)c1OC | 0.6 | x | -13% | 4 | x
COc1ccc(OC)c(Nc2ncnc3sc(-c4ccccc4)cc23)c1 | -3.6 | -11 | -11% | 4 | 2
COc1ccc(NC(=O)CCSc2ccc(C)cc2)cc1S(=O)(=O)Nc1ccccc1Cl | 9.1 | 1 | 14% | 4 | 18
O=c1c2c3c(sc2n2c(=S)[nH]nc2n1-c1ccccc1)CCC3 | 0.5 | x | -7% | -6 | x
CSc1nc(C)cc(-n2cc(F)c(=O)[nH]c2=O)n1 | 0.4 | -46 | 6% | -8 | 14
O=C1NC[C@@H](Cc2cccc3ccccc23)N(CCc2cc(C(F)(F)F)cc(C(F)(F)F)c2)C1=O | -0.1 | x | -16% | -6 | x
COc1ccc(Nc2nc(NN)nc(C)c2[N+](=O)[O-])cc1 | x | x | 5% | 1 | 0

Ordered by molar mass (ascending): 14 of the compounds above
Compound | RecA intein inh | YopH PTP inh | Mtb H37Rv | Mtb betalactam | Arbovirus anti
COc1ccc2c(=O)c(-c3nc(C)cs3)coc2c1 | 2.7 | -1 | 10% | 5 | 8
COc1cccc(/C=N/NC(=O)c2cnccn2)c1OC | 0.6 | x | -13% | 4 | x
COc1ccc(Nc2nc(NN)nc(C)c2[N+](=O)[O-])cc1 | x | x | 5% | 1 | 0
CC(NC(=O)NC(=O)c1cccc(Cl)c1)c1ccccc1 (stereo not drawn) | 1.0 | x | x | -1 | x
O=C(O)c1ccccc1-c1ccccc1C(=O)Nc1cccc(O)c1 | -4.5 | x | -3% | 44 | 0
O=C(NCC(=O)N1CCN(C(=O)c2ccco2)CC1)c1ccccc1 | -1.6 | x | x | -1 | x
COc1ccc(C(=O)NNC(=O)C(=O)/C=C(\O)c2ccc(C)cc2)cc1 | 8.2 | x | x | 13 | x
COc1ccc(OC)c(Nc2ncnc3sc(-c4ccccc4)cc23)c1 | -3.6 | -11 | -11% | 4 | 2
O=C(Nc1ccccc1C(=O)N1CCCCC1)c1ccc(Cl)cc1Cl | 0.2 | x | x | -1 | x
Cc1nn(C)c(Cl)c1S(=O)(=O)N1CCC(CO)(CCc2ccccc2)CC1 | -4.2 | x | -6% | 5 | 8
CCCCCN(C(=O)CN(C)Cc1ccc(OC)cc1OC)c1c(N)n(CCCC)c(=O)[nH]c1=O | -2.3 | -14 | -7% | -7 | -4
COc1ccc(NC(=O)CCSc2ccc(C)cc2)cc1S(=O)(=O)Nc1ccccc1Cl | 9.1 | 1 | 14% | 4 | 18
O=C1NC[C@@H](Cc2cccc3ccccc23)N(CCc2cc(C(F)(F)F)cc(C(F)(F)F)c2)C1=O | -0.1 | x | -16% | -6 | x
CCO[C@H]1OC(C(=O)NCc2nc3ccccc3[nH]2)=C[C@@H](c2ccc(Br)cc2)[C@@H]1CCCO | 4.7 | x | 4% | 13 | x

This is a subset. The share of hits here may be higher or lower than overall.
